KAT2A inh: qHTS Assay for Inhibitors of GCN5L2 | Potency, µM (series often up to 58.9 µM), inactives show top-dose activity change, negative = inhibition, hits mostly inhibitors | Histone acetyltransferase KAT2A (Homo sapiens), Q92830 | GCN5L2 HAT assay, ThioGlo1 CoA-SH fluorescence | actives 0.21% (n = 390,000)
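Preincubate 20nM GCN5L2 with compound 15 min, RT → add 50uM ThioGlo1 + 75uM H3(1-25) + 70uM acetyl-CoA → read fluorescence 0 and 20 min. Primary qHTS; fluorescent artifacts likely.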
FEN1 inh: qHTS Assay for the Inhibitors of Human Flap endonuclease 1 (FEN1); Potency, µM (titrated, usually from 114 µM), inactives show at the top dose activity change, negative = inhibition, hits mostly inhibitors; actives 0.35% (n = 390,000); Recombinant FEN1 flap cleavage, fluorescence, 15 min; further: nearly all actives have a fitted effect of over 65% in size
Target sequence (P39748 whole entry, looked up): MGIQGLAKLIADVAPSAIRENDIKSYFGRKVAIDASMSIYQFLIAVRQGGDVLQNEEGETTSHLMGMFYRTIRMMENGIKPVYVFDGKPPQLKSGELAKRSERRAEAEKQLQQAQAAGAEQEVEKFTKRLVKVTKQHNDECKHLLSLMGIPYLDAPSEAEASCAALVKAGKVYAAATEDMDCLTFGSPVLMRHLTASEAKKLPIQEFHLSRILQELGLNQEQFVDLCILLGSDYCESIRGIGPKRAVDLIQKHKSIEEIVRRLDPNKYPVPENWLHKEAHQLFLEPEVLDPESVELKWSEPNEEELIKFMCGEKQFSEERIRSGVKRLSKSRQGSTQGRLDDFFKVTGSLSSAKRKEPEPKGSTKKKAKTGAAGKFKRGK
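FEN1 at 10 nM, compound pretreatment for 15 min (room temperature), 50 nM final substrate to initiate; endpoint reads at 0 and 15 min; DMSO-only plates used as vehicle background.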
* hit, by the source's call; u = inconclusive; x = no result given; & = joins results of further samples. The call rests on the fitted dose curve; in most records, active means well fitted curve in the direction sought with a large enough effect; inconclusive means small, poorly fitted or top-dose-only effect, or another doubt; inactive means no such curve, though single readings can be large; an effect the other way counts as inactive or inconclusive. On the % scale 0 is the no-effect control and ±100 the full control effect; potency means the concentration at half of the fitted maximal effect. Only part of the results is shown; most or all hits stand in other tables.

SMILES	KAT2A inh	FEN1 inh
O=C(O)Cn1cnc2c(=S)nc[nH]c21	-2%	18%
CC/C(=C(/CC)c1ccc(O)cc1)c1ccc(O)cc1	-16%&-3%&-9%	-5%
CCN(CC)S(=O)(=O)c1ccc(C(=O)NCCSc2c(-c3ccccc3)[nH]c3ccccc23)cc1	-10%	12%
CCOc1ccc(/C=C/c2nc(C#N)c(NC(C)CC)o2)cc1 (configuration not stated)	-5%	0%
COc1ccc(Cl)cc1NC(=O)Cc1c(F)cccc1Cl	0%	8%
O=C(Nc1ccc(Cc2ccncc2)cc1)C1CCC(N2C(=O)C3C4C=CC(C4)C3C2=O)CC1 (configuration not stated)	-8%	5%
O=C(c1ccccc1Oc1ccccc1)N1CCN(c2ccccc2)CC1	-4%	-13%
Cc1cc(C)c(C(=O)CN2C(=O)NC3(CCCCC3)C2=O)cc1C	-5%	12%
Cc1cccnc1NC(=O)c1cccc(S(=O)(=O)NCc2ccccc2)c1	-12%	-4%
O=C(Nc1cccc([N+](=O)[O-])c1)NC1CCCCCCC1	-3%	-24%
Cn1c(=O)c2c(ncn2CC(=O)N2CCN(c3ccccc3)CC2)n(C)c1=O	-5%	2%
COc1ccc(-n2ncc(C(=O)N3CCN(C(=O)c4ccco4)CC3)c2C2CCN(C(=O)OC(C)(C)C)CC2)cc1	2%	20%
COc1cccc(NS(=O)(=O)CC23CCC(CC2=O)C3(C)C)c1 (configuration not stated)	3%	1%
Cc1cc(NC(=O)c2cc([N+](=O)[O-])cc([N+](=O)[O-])c2)n(-c2ccccc2)n1	25%	5%
CCn1c(SC(C)C(=O)Nc2nnc(C)s2)nnc1-c1ccco1 (configuration not stated)	-4%	2%
Cc1nn(C(C)C(=O)N2CCc3ccccc32)c(C)c1[N+](=O)[O-] (configuration not stated)	2%	-16%
Cc1cccc(-n2cnc(C(=O)O)c2)n1	-11%	0%
COc1ccc(-c2csc(N(CCCN(C)C)C(=O)c3cc(OC)c(OC)c(OC)c3)n2)cc1	0%	-13%
Cc1ccc(Nc2ncccc2C(N)=O)cc1[N+](=O)[O-]	-4%	17%
S=c1[nH]nc(-c2n[nH]c3c2CCC3)n1/N=C/C=C/c1ccccc1	-1%	3%
CN1CCN(C(=S)NC(=O)c2ccccc2Br)CC1	-19%	-11%
CCC(C)N(C(=O)COC(=O)c1nc2nc(C)cc(C)n2n1)C1CCS(=O)(=O)C1 (configuration not stated)	-4%	3%
CCOc1ccc(CCNC(=O)COC(=O)c2cccnc2Cl)cc1OCC	1%	-4%
O=CN(CCN(C=O)CN1CCCCC1)CN1CCCCC1	-7%	0%
COc1ccc(NC(=O)Cn2nc(C(=O)O)c3ccccc3c2=O)cc1Cl	0%	6%
CCS(=O)(=O)N1CCCC(C(=O)NCCOC)C1 (configuration not stated)	-1%	-4%
O=C1CC(N2CCN(c3ccc(F)cc3)CC2)C(=O)N1Cc1ccccc1 (configuration not stated)	0%	1%
CC(=O)n1cc([C@@H]2C=C(C(=O)N3CCOCC3)O[C@H](OCCCCO)C2)c2ccccc21	-1%	-5%
CN(C)/N=C/c1ccc([N+](=O)[O-])cc1[N+](=O)[O-]	-4%	6%
O=C(CN1C(=O)NC2(CCCCCCC2)C1=O)Nc1ccc(Br)cc1	2%	-19%
C=CCOc1c(Br)cc(/C=C2/NC(=S)N(C(C)=O)C2=O)cc1OC	-15%	-6%
O=C1c2ccccc2C(O)(c2ncc[nH]2)N1C1CCCCC1 (configuration not stated)	-3%	-10%
CCOCCCn1c(SCC(=O)/C(C#N)=C(\C)N)nc2ccccc2c1=O	-1%	1%
N#CCSc1nc2cc(C(=O)N3CCCC3)ccc2c(=O)n1Cc1ccccc1	6%	5%
COc1ccc(C2OCC3(CO2)SC(=O)NC3=O)cc1 (configuration not stated)	-7%	-6%
COc1ccccc1CNC(=O)C1CCC(=O)N(CCCN2CCCC2=O)C1 (configuration not stated)	-1%	-1%
CC1OC1P(=O)(O)O (configuration not stated)	-6%&-6%	x
O=C(COc1ccc(C(=O)NCc2cccnc2)cc1)Nc1cccc(C(F)(F)F)c1	-8%	4%
Cc1nn(C(C)C(=O)NCCC2=CCCCC2)c(=O)c2nn(-c3ccccc3)c(C)c12 (configuration not stated)	-3%	1%
Cc1[nH]nc2c1C(c1ccc(OC(=O)c3ccco3)cc1)C(C#N)=C(N)O2 (configuration not stated)	-1%	-5%
CCc1ccc(Oc2nc3c(C)cccn3c(=O)c2/C=C(\C#N)c2nc3ccccc3[nH]2)cc1	-9%	-5%
CCNC(=O)CC1C(=O)N(c2ccccc2)C(=O)N1Cc1ccc(F)cc1 (configuration not stated)	-2%	13%
O=C(NCc1ccccc1)C1=C[C@H](c2ccc(C(F)(F)F)cc2)C[C@H](OCc2ccc(CO)cc2)O1	-6%	-26%
Cc1ccc(Sc2ncccc2C(=O)NCC(c2ccc(F)cc2)N2CCOCC2)cc1C (configuration not stated)	0%	-2%
NC(=O)COc1ccc(NS(=O)(=O)Cc2ccccc2)cc1	2%	11%
CS(=O)(=O)N1CCN=C1SCc1ccccc1	-2%	7%
CC1=C(C(=O)N2CCCCC2)C(c2cccs2)NC(=O)N1 (configuration not stated)	-2%	0%
CC(=O)Nc1ccc(NC(=O)C(C)Sc2nc3ccccc3c(=O)n2Cc2ccco2)cc1 (configuration not stated)	0%	1%
CCOC(=O)c1[nH]c2ccc(OC)cc2c1NC(=O)/C=C/c1ccc2c(c1)OCO2	5%	-2%
CCC(=O)N1CCc2cc(S(=O)(=O)NC(C(=O)N3CCN(c4ccc(F)cc4)CC3)C(C)C)ccc21 (configuration not stated)	-4%	-16%
CN(C(=O)c1cccc(S(=O)(=O)N2CCCCC2)c1)C1CCS(=O)(=O)C1 (configuration not stated)	2%	0%
O=C(Oc1c(Cl)cc(Cl)c2cccnc12)N1CCOCC1	u	-7%
CCC(=O)N1CCc2cc(S(=O)(=O)NC(Cc3ccccc3)C(=O)NCc3ccccc3OC)ccc21 (configuration not stated)	-5%	-15%
CC(=O)Nc1nnc(SCC(=O)NCC2CCCO2)s1 (configuration not stated)	-4%	-4%
CN(CC(O)COC(c1ccccc1)c1ccccc1)C1CCCCC1 (configuration not stated)	-2%	8%
CC1CCCCN1CCNC(=O)c1ccc2c(c1)N(Cc1cccc(Cl)c1)C(=O)c1ccccc1S2=O (configuration not stated)	1%	-16%
Cc1nc(S(=O)(=O)c2ccc(Cl)cc2)c(N(C)C)o1	-1%	-1%
CCCCCCn1nnc2sc(-c3ccccc3)cc2c1=O	6%	39%
O=C(NC1CCCCNC1=O)c1ccc(Cl)cc1 (configuration not stated)	-2%	-4%
NC(=O)NC(CC(=O)N1CCc2ccccc2C1)c1ccc(Cl)cc1 (configuration not stated)	-1%	1%
Going on with the list.
SMILES	KAT2A inh	FEN1 inh
CCN(C(=O)c1cc(Cl)ccc1OC)c1ccccc1	-1%	-11%
COc1cc(-c2nnc(COc3ccc(Cl)cc3C)o2)cc(OC)c1OC	-8%	2%
Cc1cc(SCC(=O)Nc2cccc(S(=O)(=O)N3CCOCC3)c2)nc2ccccc12	0%	-17%
CCS(=O)(=O)NCCc1csc(-c2ccccc2)n1	-5%	-3%
CC(C)NS(=O)(=O)c1cc(C(=O)O)ccc1Cl	1%	2%
Cc1ccc(C)c(N2CCN(C(=O)C3CCCN(S(=O)(=O)c4c(C)noc4C)C3)CC2)c1 (configuration not stated)	-7%	-16%
N#CCCN(C(=O)COc1ccc(Br)cc1F)c1ccc(F)cc1	-1%	-7%
Cc1ccc(N=C2NC(=O)c3cc([N+](=O)[O-])ccc32)cc1	-5%	0%
COc1ccc(S(=O)(=O)N(C)CC(=O)Nc2ccccc2SC)cc1	-22%	-11%
O=S(=O)(c1ccc2nnn(O)c2c1)N1CCCCC1	-4%	-3%
Cc1c(C(=O)Nc2c(F)cccc2F)sc2ncnc(N3CCN(c4ccccc4)CC3)c12	-15%	-19%
COc1cc(C(=O)N/C(=C\c2cn(C)c3ccccc23)C(=O)NCCCO)cc(OC)c1OC	-3%	14%
COCCN(C(=O)c1ccco1)c1nnc(-c2ccc(F)cc2)s1	-4%	-1%
O=C(CCl)N=c1sccn1Cc1ccccc1Cl	-7%	3%
CC1CC=C2C(C#N)=C(N)C(C#N)(C#N)C(c3cccs3)C2C1 (configuration not stated)	-5%	10%
COc1ccc(CC(=O)Nc2nnc(SCC(=O)NCc3ccco3)s2)cc1OC	12%	-7%
O=C(N/N=C/c1cccc(F)c1)NC1CCCCC1	-3%	-9%
COC(=O)[C@H](Cc1ccccc1)NC(=O)Nc1ccc(C)cc1	-6%	0%
O=[N+]([O-])c1ccc(S(=O)(=O)NCC2COc3ccccc3O2)cc1 (configuration not stated)	-6%	-16%
COc1cc(-c2nc3ccccn3c2/N=C/c2ccccc2)ccc1O	-18%	2%
O=C(CSc1nc(N2CCOCC2)nc(N2CCOCC2)n1)Nc1ccccc1F	0%	-1%
COc1ccccc1N/C=C(\C#N)c1nc2ccccc2[nH]1	-2%	-2%
NC(=O)CC(NC(=O)c1ccccc1)c1ccc(NC2CCCCC2)c([N+](=O)[O-])c1 (configuration not stated)	0%	11%
Cc1ccc(NC(=O)c2cccc(OCc3c(C)noc3C)c2)cc1S(=O)(=O)Nc1ccccc1Cl	-8%	-22%

Some of these compounds in order of SMILES length, lowest first:
SMILES	KAT2A inh	FEN1 inh
O=C(CCl)N=c1sccn1Cc1ccccc1Cl	-7%	3%
COc1cc(-c2nc3ccccn3c2/N=C/c2ccccc2)ccc1O	-18%	2%
O=[N+]([O-])c1ccc(S(=O)(=O)NCC2COc3ccccc3O2)cc1 (configuration not stated)	-6%	-16%
Cc1ccc(NC(=O)c2cccc(OCc3c(C)noc3C)c2)cc1S(=O)(=O)Nc1ccccc1Cl	-8%	-22%

Remaining list, next part.
SMILES	KAT2A inh	FEN1 inh
CC(=O)N/C(=C\c1ccccc1)C(=O)NCc1ccc2c(c1)OCO2	-20%	-2%
CC(C)c1ccc(N(CC(=O)NCc2cccnc2)S(=O)(=O)c2ccccc2)cc1	-11%	13%
NC(=O)c1ccc(NC(=O)Cc2ccc(S(=O)(=O)N3CCCCC3)cc2)cc1	-3%	-10%
O=C(Nc1ccc(F)cc1)N1CCN(c2nc3ccccc3s2)CC1	13%	1%
COc1ccc(NC(=O)CSc2nnnn2C2CC3C=CC2C3)cc1 (configuration not stated)	-8%	-20%
COc1ccc(OC)c(CN2CCCC(CO)C2)c1 (configuration not stated)	-5%	-3%
Cc1c(Cl)c([N+](=O)[O-])nn1CC(=O)NC12CC3CC(CC(C3)C1)C2	-5%	-16%
COc1ccc(NC(=O)c2sc3nc(C)c(C(=O)Nc4ccc(C)cc4C)c(-c4ccc(C)o4)c3c2N)cc1	-28%	9%
COc1ccc(C(CCN(Cc2ccc(OC)c(OC)c2)C(=O)CCl)c2ccccc2)cc1 (configuration not stated)	-11%	7%
Cc1ccc(S(=O)(=O)NNC(=O)c2ccc3ccccc3n2)cc1	-9%	-14%
CCC(CC)C(=O)Nc1nnc(SCc2cc(=O)n3cccc(C)c3n2)s1	-6%	-18%
CCN(C(=O)c1ccc(Br)cc1)c1ccccc1	-4%	0%

Some values from the results shown.
FEN1 inh result of COc1ccc(NC(=O)c2sc3nc(C)c(C(=O)Nc4ccc(C)cc4C)c(-c4ccc(C)o4)c3c2N)cc1 : 9%
KAT2A inh result of O=C(Nc1ccc(F)cc1)N1CCN(c2nc3ccccc3s2)CC1 : 13%
KAT2A inh result of Cc1c(Cl)c([N+](=O)[O-])nn1CC(=O)NC12CC3CC(CC(C3)C1)C2 : -5%
KAT2A inh result of COc1ccc(NC(=O)CSc2nnnn2C2CC3C=CC2C3)cc1 (configuration not stated) : -8%
FEN1 inh result of CC(C)c1ccc(N(CC(=O)NCc2cccnc2)S(=O)(=O)c2ccccc2)cc1 : 13%
FEN1 inh result of NC(=O)c1ccc(NC(=O)Cc2ccc(S(=O)(=O)N3CCCCC3)cc2)cc1 : -10%
FEN1 inh result of COc1ccc(C(CCN(Cc2ccc(OC)c(OC)c2)C(=O)CCl)c2ccccc2)cc1 (configuration not stated) : 7%

More structures.
SMILES	KAT2A inh	FEN1 inh
c1cn2c(NC3CCCC3)c(-c3ccc(N4CCOCC4)cc3)nc2cn1	-12%	10%
Cc1ccccc1-c1cc(C(=O)Nc2nc3c(s2)CCCC3)c2ccccc2n1	-2%	4%
CC1(C)C2CCC1(CS(=O)(=O)N1CCOCC1)C(=O)C2 (configuration not stated)	4%	-4%
COc1ccc(-c2csc(NC(=O)CSCc3c(C)noc3C)n2)c(OC)c1	-9%	-11%
CCOC(=O)C1CCN(C(=O)CCn2c(=O)[nH]c3ccccc3c2=O)CC1	-2%	0%
COC(=O)c1ccc(CSc2nc3c([nH]c4ccccc43)c(=O)n2-c2cccc(OC)c2)o1	-13%	9%
S=c1[nH]nc(C2CCCCC2)n1/N=C/c1cccs1	-5%	-1%
CCN(Cc1ccccc1)C(=O)c1cc2c(=O)[nH]c3ccc(C)cc3c2s1	-2%	-15%
CCOc1ccc(NS(=O)(=O)c2ccc(OCC(=O)N3CCCC3)cc2)cc1	-8%	-1%
COc1ccc(-c2cc(C(=O)Nc3c(C)n(C)n(-c4ccccc4)c3=O)c3ccccc3n2)cc1	-9%	-2%
O=C(O[C@@H](C(=O)O)[C@@H](OC(=O)c1ccccc1)C(=O)O)c1ccccc1	-6%	0%

Entries of single compounds from above:
O=C(O[C@@H](C(=O)O)[C@@H](OC(=O)c1ccccc1)C(=O)O)c1ccccc1 in the list: KAT2A inh = -6%; FEN1 inh = 0%
CCN(Cc1ccccc1)C(=O)c1cc2c(=O)[nH]c3ccc(C)cc3c2s1 in the list: KAT2A inh = -2%; FEN1 inh = -15%
